# Mtb H37Rv: Mycobacterium tuberculosis H37Rv growth inhibition, cell based, confirmatory dose response (AID 1949); most inactive calls were filed without a number and no value below 0 was filed; one-dose inhibition, % at 10 µg/mL; IC50 in µg/mL for titrated hits; hit rate 1.6% among 100,000;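 active = confirmed in a dose series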;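 also: bacteria grown 7 days with compound before Alamar blue readout; 0% = untreated bacteria and 100% = reference antibiotic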
# * hit, by the source's call; i = inactive. Some of the compounds tested; rates above refer to the full screens.
SMILES,Mtb H37Rv
Cn1nnnc1SCC(=O)N1CCN(C(c2ccccc2)c2ccccc2)CC1,i
COc1ccc(NC(=O)C2(c3ccccc3)CCOCC2)cc1,i
CCc1cccc(C)c1NC(=O)CN(c1ccc(Cl)c(C(F)(F)F)c1)S(C)(=O)=O,i
O=C(O)c1ccc(NC(=O)c2ccc(O)cc2)cc1,i
Cc1cc(OCc2nc(-c3ccccn3)no2)ccc1Br,i
CC1(C)CC(CCC(=O)Nc2ccccc2Cl)C(=O)O1 (stereo not drawn),4.0%
Cc1ccc(N(CC(=O)Nc2cccc(C)c2C)S(=O)(=O)c2ccc(F)cc2)cc1,i
O=C(NC(=S)Nc1ccc2[nH]c(=O)[nH]c2c1)c1cc(Br)ccc1Cl,2.9%
O=C(N/N=C/c1cc2c([nH]1)CCCC2)c1n[nH]c2c1CCC2,3.7%
CC(=O)Nc1ccc(S(=O)(=O)N2CCc3ccccc3C2)cc1,i
COc1ccc(NC(=S)NNC(=O)Cc2c(F)cccc2Cl)cc1OC,i
CN(c1ccccc1C(=O)Nc1ccccc1C(F)(F)F)S(=O)(=O)c1ccccc1,i
O=C(NCCc1ccccc1)C1CC(c2ccccc2O)=NO1 (stereo not drawn),i
CN(C)c1ccc(NC(=O)Nc2ccc3c(c2)nnn3C)cc1,i
CCN(CC)CCOc1ccc(C(C)(C)CC)cc1,i

# Among those listed so far, these contain four or more nitrogen atoms.
SMILES,Mtb H37Rv
Cn1nnnc1SCC(=O)N1CCN(C(c2ccccc2)c2ccccc2)CC1,i
O=C(NC(=S)Nc1ccc2[nH]c(=O)[nH]c2c1)c1cc(Br)ccc1Cl,2.9%
O=C(N/N=C/c1cc2c([nH]1)CCCC2)c1n[nH]c2c1CCC2,3.7%
CN(C)c1ccc(NC(=O)Nc2ccc3c(c2)nnn3C)cc1,i

# (further entries)
SMILES,Mtb H37Rv
COc1cccc(C(=O)O/N=C(\N)c2ccccn2)c1,15.6%
CCc1ccc(NC(=O)c2ccc(S(=O)(=O)N(C)C)cc2)cc1,i
COc1cccc(OCCCOc2ccccc2OC)c1,5.5%
CC(C)NC(=O)c1ccccc1NS(=O)(=O)Cc1ccccc1,i
CCOC(=O)c1cc(C)sc1NC(=S)NC(=O)c1ccccc1,i
Cc1ccc(NC(=O)C(=O)NCCCO)cc1Cl,i
COc1ccc(Cl)cc1NC(=O)c1cccc(C)c1[N+](=O)[O-],1.5%
CCCOc1ccc(CC(=O)NCCc2ccccc2)cc1OC,i
Cc1ccc(S(=O)(=O)N(CC(=O)N2CCC(C(N)=O)CC2)c2ccc(C(C)C)cc2)cc1,i
CCCCNC(=O)C(=O)NCCOc1ccccc1,0.2%
CCOC(=O)c1c(NC(=O)C(C)Oc2ccc(Cl)cc2Cl)sc(C(C)=O)c1C (stereo not drawn),i
CC(C)c1ccc(NC(=O)c2ccc(N(Cc3ccccc3Cl)S(C)(=O)=O)cc2)cc1,i
CCCC(=O)n1nc(-c2ccc(C)cc2)nc1N,i
CCOC(=O)C1C2C=CC3(CN(Cc4ccc(C)cc4)C(=O)C13)O2 (stereo not drawn),i
CCN1C2=C(C(=O)CCC2)C(c2ccccc2OCc2cccc(F)c2)C2=C1CCCC2=O,i
CN(C)CCNC(=O)c1ccccc1Cl,i
O=c1[nH]cnc2scc(-c3ccc([N+](=O)[O-])cc3)c12,1.7%
CCOc1ccc2nc(NC(=O)c3ccc4c(c3)OCO4)sc2c1,i
O=C(Nc1ccccc1-c1ccccc1)c1ccc2c(c1)C(=O)N(Cc1cccnc1)C2=O,i
CCOc1ccc(-n2c(CCc3ccccc3)nnc2SCC(=O)NCc2ccccc2)cc1,0.2%
COc1ccc(C(=O)NC(=S)Nc2ccc(-c3nc4ccccc4s3)c(Cl)c2)cc1OC,i
Cc1cccc(C)c1OCc1nnc(SCC(=O)Nc2ccc(Br)cc2C(C)C)o1,i
COc1cc(C2C3=C(CCCC3=O)Nc3ccc4nc(C)ccc4c32)cc(OC)c1OC (stereo not drawn),i
Cc1ccc2nc(-c3ccc(NC(=O)c4cc(C)on4)cc3)sc2c1,3.1%
CCN1CCN(C(=O)CN(c2ccc(F)cc2)S(=O)(=O)c2ccc3c(c2)OCCO3)CC1,2.5%
CCOC(=O)C1=C(C)Nc2ncnn2C1c1cccs1 (stereo not drawn),4.4%
CCn1c(SCC(=O)N2c3ccccc3Sc3ccccc32)nnc1-c1ccco1,i
Cc1c(Cl)cccc1N/C=C(\C#N)c1nc2ccccc2[nH]1,i
COc1ccc(-c2nnc(SCC(=O)Nc3cc(Cl)cc(Cl)c3)n2C)cc1,i
C=CCN(Cc1ccc(OC)c(OC)c1)C(=S)Nc1ccccc1,i
NC(=O)C1CC(=O)N(c2ccc(OCc3ccc([N+](=O)[O-])cc3)cc2)C1 (stereo not drawn),i
COc1ccc(C(=O)Nc2ccc(S(=O)(=O)NC(C)C)cc2)cc1I,i
CCCn1nnc(NC(=O)c2ccc(C)cc2Cl)n1,i
O=C(Nc1ccon1)c1cc(-c2cccnc2)nc2ccc(Br)cc12,0.8%
Cn1nc(-c2ccc(C(=O)Nc3cccc(C(F)(F)F)c3)cc2)c2ccccc2c1=O,i
CC(Nc1cc(N2CCN(S(=O)(=O)Cc3ccccc3)CC2)ccc1[N+](=O)[O-])c1ccccc1 (stereo not drawn),2.4%
CCOC(=O)CCc1c(C)c2ccc(OCc3cccc(OC)c3)cc2oc1=O,25.2%
CCOc1ccc(S(=O)(=O)Nc2c(C)cccc2C(C)C)cc1,4.5%
N=c1c(S(=O)(=O)c2ccc(Cl)cc2)cc2c(=O)n3ccccc3nc2n1C1CCCC1,i
COc1ccc(Cc2nnc(NC(=O)Cc3ccc(OC)c(OC)c3)s2)cc1,i
O=C(NC(=S)c1cccc2ccccc12)N1CCOCC1,i
Cc1cc(C)cc(OS(=O)(=O)c2cc(Cl)ccc2Cl)c1,1.1%
CC(=O)c1cn(CCOc2cc(C)ccc2C)c2ccccc12,4.9%
COc1ccccc1OCC(=O)NCCCc1ccccc1,i
Cc1ccc(-c2nnc(-c3ccc(F)cc3)o2)cc1,i
CC(C)C1Cc2c(sc3c2c2n[nH]c(=S)n2c2n[nH]c(=S)n32)CO1 (stereo not drawn),i
CC(C)(C)C(C)(O)C#CC(C)(O)C(C)(C)C (stereo not drawn),1.1%
O=C(CCCOc1ccc(Cl)cc1Cl)Nc1ccc(Cl)cc1F,i
O=C(C1CCN(S(=O)(=O)c2cc(Cl)ccc2Cl)CC1)N1CCc2ccccc2C1,3.2%
Cc1cc(C)n(C(=O)c2cccc(S(=O)(=O)N3CCOCC3)c2)n1,i
O=S(=O)(Oc1c(Cl)cccc1Cl)c1ccc(I)cc1,7.0%
CC(=O)NS(=O)(=O)c1ccc(NC(=O)C(C)(C)Oc2ccc(Cl)cc2)cc1,i
CC(C)C(=O)Nc1cccc(C(=O)N2CCCCC2C)c1 (stereo not drawn),i
O=C(CCCN1C(=O)c2cccc3cccc(c23)C1=O)N1CCN(c2ncccn2)CC1,i
CC1CCN(CC(=O)NCc2ccccc2)CC1,i
C=CCN1C(=O)C(O)(CC(=O)c2ccc(Cl)cc2)c2cc(Br)ccc21 (stereo not drawn),i
CCOC(=O)CCc1c(C)c2cc(Cl)c(OCc3ccc([N+](=O)[O-])cc3)cc2oc1=O,i
O=CC1=C(c2ccccc2)Oc2ccccc2O1,5.0%
CC(C)c1ccccc1NC(=O)CCC(=O)Nc1ccccc1C(C)C,0.3%
CCOC(=O)c1cc(Cc2ccccc2)sc1NC(=S)Nc1nc(C)cc(C)n1,i

# Four of the compounds above, as labelled records:
> CC(C)C(=O)Nc1cccc(C(=O)N2CCCCC2C)c1 (stereo not drawn)
  Mtb H37Rv: i

> O=C(CCCN1C(=O)c2cccc3cccc(c23)C1=O)N1CCN(c2ncccn2)CC1
  Mtb H37Rv: i

> CC1CCN(CC(=O)NCc2ccccc2)CC1
  Mtb H37Rv: i

> C=CCN1C(=O)C(O)(CC(=O)c2ccc(Cl)cc2)c2cc(Br)ccc21 (stereo not drawn)
  Mtb H37Rv: i

# Going on with the list.
SMILES,Mtb H37Rv
O=S(=O)(c1ccccc1F)N1CCN(S(=O)(=O)c2ccccc2F)CC1,i
CCC(=O)Oc1ccc(C#N)cc1OC,7.1%
CCN1CCN(CCOc2ccc(Br)cc2C)CC1,i
Cc1nc(NC(=O)CCc2ccccc2)ccc1Br,i
COc1ccc(C=O)cc1CSc1nc2ccccc2c(=O)n1-c1ccccc1,1.7%
CC(=O)Nc1ccc(S(=O)(=O)Nc2ccccc2C(=O)N2CCCC2)cc1,i
CC12CCC(C(=O)N3CCOCC3)(C(=O)C1=O)C2(C)C (stereo not drawn),5.3%
O=C(Nc1ccccn1)c1cccc(S(=O)(=O)NCCOc2ccccc2)c1,i
COCc1nnc(NC(=O)c2cc3ccccc3o2)s1,i
NC(=O)C1(N2CCCCC2)CCN(C(=S)NCCc2ccccc2)CC1,i
CC1=C(C(=O)OC(C)C)C(c2ccc(C)c(Br)c2)NC(=O)N1 (stereo not drawn),1.4%
Cc1c(C=O)c2ccccc2n1CC(=O)N1C(C)CCCC1C (stereo not drawn),i
C=C(C)c1cccc(C(C)(C)NC(=O)N2CCN(C)CC2)c1,3.0%
O=S(=O)(NCCOCCNS(=O)(=O)c1ccccc1)c1ccccc1,i
CS(=O)(=O)N(CC(=O)N1CCCCC1)c1ccc(Oc2ccccc2)cc1,i
CC(=O)N1c2ccccc2NC2=C(C(=O)CC(c3ccc(C(C)(C)C)cc3)C2)C1c1ccncc1 (stereo not drawn),1.8%
COc1cccc(CSC2=C(C#N)C(c3cccs3)C(C(=O)Nc3ccccc3)=C(C)N2)c1 (stereo not drawn),i
C=C(C)c1cccc(C(C)(C)NC(=O)N2CCN(c3ccc(OC)cc3)CC2)c1,5.0%
COCCCN1C(=O)CC(C(=O)OC)=C1C,i
Cc1ccc(OCC(=O)N(C)Cc2ccccc2)c(C)c1,3.8%
O=C(CCCN1C(=O)c2ccccc2C1=O)N1CCN(c2ccccc2F)CC1,i
COc1cccc(C2CC(=O)C3=C(C2)Nc2ccccc2NC3c2cccc([N+](=O)[O-])c2)c1 (stereo not drawn),19.3%
N#Cc1c(SCC(=O)Nc2nccs2)nsc1SCC(=O)Nc1nccs1,1.2%
CC(NC(=O)c1cc2cc(Br)ccc2oc1=O)c1ccccc1 (stereo not drawn),i
CCN(CC)C(=O)c1sc(NC(=S)N2CCN(C(=O)C3CCCO3)CC2)c(C(=O)OC)c1C (stereo not drawn),i
Cc1ccc(S(=O)(=O)Nc2ccc(Cl)cn2)cc1,i
COc1ccc(S(=O)(=O)N(CC(=O)Nc2cccc(SC)c2)c2ccc(C)cc2)cc1OC,i
CCCCn1c(COc2ccc(Cl)cc2)nc2ccccc21,29.3%
C=CCc1cc(C)ccc1OCCOCCN1CCC(C)CC1,i
CCc1ccccc1NC(=O)CN(c1cccc([N+](=O)[O-])c1)S(C)(=O)=O,i

# Entries listed so far that have a tert-butyl group:
SMILES,Mtb H37Rv
CC(C)(C)C(C)(O)C#CC(C)(O)C(C)(C)C (stereo not drawn),1.1%
CC(=O)N1c2ccccc2NC2=C(C(=O)CC(c3ccc(C(C)(C)C)cc3)C2)C1c1ccncc1 (stereo not drawn),1.8%

# Carrying on:
SMILES,Mtb H37Rv
CS(=O)(=O)N(CC(=O)N1CCOCC1)c1ccccc1Cl,i
O=C(O)c1ccc(NC(=S)NC(=O)C(c2ccccc2)c2ccccc2)cc1,i
COc1ccc(OCCSc2nnc(COc3ccccc3C)n2C)cc1,i
CCOC(=O)c1cc2c(=O)n3ccccc3nc2n(C)c1=NC(=O)c1cccs1,i
Nc1cc(=O)[nH]c(SCc2noc(-c3ccc(Cl)cc3)n2)n1,2.4%
CC(C)(C)c1ccc(S(=O)(=O)N2CCN(c3ccccc3F)CC2)cc1,i
Cc1cccc(C(=O)Nc2nnc(SC(C)C(=O)Nc3c(C)cc(C)cc3C)s2)c1 (stereo not drawn),i
O=C1C2C(C(=O)N1c1ccc(Cl)cc1)C2(c1ccccc1)c1ccccc1 (stereo not drawn),i
Cc1ccccc1OCc1n[nH]c(=S)n1C,i
COc1ccc(-n2c(CCc3ccccc3)nnc2SCC(=O)N2CCCC2)cc1,i
CCOc1ccc(C2C(C(=O)OC)=CN(C)C=C2C(=O)OC)cc1Cl,i
S=c1cc(-c2ccccc2)[nH]c(=S)[nH]1,0.5%
Cc1ccc(N2CCN(C(=O)c3cccc([N+](=O)[O-])c3)CC2)c(C)c1,13.0%
CCn1c2ccccc2c2nnc(SCC(=O)Nc3ccc(S(N)(=O)=O)cc3)nc21,i
CCCC(CCC)C(=O)Nc1cccc(-c2nc3ccccc3[nH]2)c1,17.9%
Cc1ccc(OCC(O)CNC(C)c2ccccc2)cc1C (stereo not drawn),7.6%
O=C(Nc1ccc(NC(=O)c2cc(Cl)ccc2Cl)cc1)c1cccc(Cl)c1,i
O=C(c1ccc(-c2ccccc2)cc1)N1CCCCCC1,5.1%
Cc1cccc(C)c1OCCCN1CC(C)OC(C)C1 (stereo not drawn),i
N#CCSCC(=O)Nc1ccccc1,i
COc1ccc(/C(N)=N/OC(=O)CCC2CCCC2)cc1OC,i
COc1ccc(CSCCN)cc1Cl,i
CC(=O)NC(=S)Nc1cc(C(=O)O)ccc1Cl,i
COc1ccc(N2N=C(C(C)=O)SC23SC(C(C)=O)=C(C)N3c2ccccc2)cc1 (stereo not drawn),i
CCN(CC)S(=O)(=O)c1ccc(NC(=O)Cc2ccc(Cl)cc2)cc1,48.0%
O=C(NC1CCCC1)NS(=O)(=O)c1ccccc1Cl,i
COc1ccccc1OCC(=O)Nc1cccc(N(C)S(C)(=O)=O)c1,i
Nc1ncnc(Nc2ccc(SC(F)F)cc2)c1[N+](=O)[O-],i
C=CCSc1nc2ccccc2n1C(=O)/C=C/c1ccc2c(c1)OCO2,i
Cc1ccc(-c2noc(CCC3CCCCC3)n2)cc1,0.8%
O=S(=O)(Nc1ccccc1Sc1ccccc1)c1ccc2c(c1)OCCO2,i
O=[N+]([O-])c1ccc2onc(-c3ccccc3)c2c1,i
COc1ccc(Cl)cc1C(=O)Nc1cccc(NC(=O)c2cc(Cl)ccc2OC)c1,i

# Screens from PubChem.
